From PubChem
NPR1 antag: human Npr1 receptor antagonism; P16066; HEK293 hNpr1 GloSensor cGMP, ANP-stimulated luminescence; Potency, µM (top dose mostly 46.3 µM), without a hit: at the highest dose activity change, negative = inhibition, actives largely listed as inhibitors; 76,000 compounds, 1.6% hits; active = well fitted inhibition curve with a large enough effect; inconclusive = small, poorly fitted or top-dose-only effect; inactive = no such curve, though single readings can be large or run the other way;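 further: nearly all actives have a fitted effect of over 60% in size; nearly all hits also lower the signal before the agonist is added; a reference antagonist and vehicle were the controls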
Target sequence (P16066 whole entry, looked up): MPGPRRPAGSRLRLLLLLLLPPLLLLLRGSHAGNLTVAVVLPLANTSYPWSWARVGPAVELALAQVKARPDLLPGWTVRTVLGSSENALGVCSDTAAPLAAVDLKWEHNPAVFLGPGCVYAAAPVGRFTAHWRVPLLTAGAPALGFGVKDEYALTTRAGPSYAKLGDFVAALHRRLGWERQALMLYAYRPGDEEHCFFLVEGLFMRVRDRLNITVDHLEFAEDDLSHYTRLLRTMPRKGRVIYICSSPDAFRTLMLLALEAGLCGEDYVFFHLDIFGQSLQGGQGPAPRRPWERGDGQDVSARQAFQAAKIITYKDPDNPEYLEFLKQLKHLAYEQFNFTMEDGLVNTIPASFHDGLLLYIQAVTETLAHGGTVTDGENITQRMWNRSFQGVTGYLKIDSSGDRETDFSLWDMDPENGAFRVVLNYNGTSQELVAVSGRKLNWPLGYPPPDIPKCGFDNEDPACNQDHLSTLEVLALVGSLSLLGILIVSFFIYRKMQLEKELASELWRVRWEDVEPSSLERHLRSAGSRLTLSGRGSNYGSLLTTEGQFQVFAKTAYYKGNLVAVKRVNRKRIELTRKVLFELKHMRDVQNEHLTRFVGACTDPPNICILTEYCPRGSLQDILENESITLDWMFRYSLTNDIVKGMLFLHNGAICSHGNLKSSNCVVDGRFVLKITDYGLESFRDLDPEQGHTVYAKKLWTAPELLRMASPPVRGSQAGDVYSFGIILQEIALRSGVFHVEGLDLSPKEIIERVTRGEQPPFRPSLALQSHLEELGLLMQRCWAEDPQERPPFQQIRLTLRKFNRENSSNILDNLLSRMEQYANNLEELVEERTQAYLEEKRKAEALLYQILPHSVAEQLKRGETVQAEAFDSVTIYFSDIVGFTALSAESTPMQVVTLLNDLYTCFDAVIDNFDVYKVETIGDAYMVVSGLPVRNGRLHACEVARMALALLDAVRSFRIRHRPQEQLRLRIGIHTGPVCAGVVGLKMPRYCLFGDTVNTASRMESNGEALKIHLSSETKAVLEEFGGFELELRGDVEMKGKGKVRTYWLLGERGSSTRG
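HEK293 cells stably expressing human Npr1 and cGMP GloSensor pGS-40F, loaded 2 h with 2% GloSensor reagent, given compound 30 min at room temperature. Luminescence read before and 20 min after 0.1 nM hNppA.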
* = called active by the depositor; ? = inconclusive; [ ] = dose if it differs, or a comment. On the % scale 0 is the no-effect control and ±100 the full control effect; potency means the concentration at half of the fitted maximal effect. Some of the compounds tested; the hit share may differ from the screen's.

structure,NPR1 antag
CCCn1cc(CN2CCc3nc(N4CCN(C)CC4)[nH]c(=O)c3CC2)c2ccccc21,-3.0%
COc1ccc(CCNC(=O)c2cc3c(N4CCCC4)nc(C)cn3n2)cc1OC,-18.7%
COc1cc(NC(=O)Cn2ccn3nc4c(c3c2=O)CCCCC4)cc(OC)c1,-0.8%
CN1C[C@@H](NC(=O)c2ccccn2)C[C@H]1c1nc(-c2ccc(Cl)cc2)no1,6.2%[70.6 µM]
O=C(Cc1ccccc1F)Nc1cnc(-c2cccnc2)nc1,-9.3%
OCC1CN(Cc2ccc(C(F)(F)F)cc2)CC12CCNCC2 (stereo unspecified),-7.7%
Cc1ccc(C(=O)N2CCC3(CC2)N=C(c2cccc(Br)c2)NO3)s1,-18.7%
CC(C)OCCCNC(=O)c1ccc(N2CC3CC(C2)[C@H]2CCCC(=O)N2C3)nc1 (stereo partly specified),3.0%
O=C(CC1COCCN1)N1CCC(OCc2cccnc2)CC1 (stereo unspecified),7.8%
CC(C)CN1C(=O)c2cccn2CC1C(=O)NC1CCS(=O)(=O)C1 (stereo unspecified),2.0%
COCCCNC(=O)C(NC(=O)c1ccccc1)C1CCN(C(=O)C2CC2)CC1 (stereo unspecified),-6.3%
COc1ccc(-c2cc(C(=O)N3CCOC(c4ccc(F)cc4)C3)[nH]n2)cc1 (stereo unspecified),-26.7%
C=CCNC(=O)N[C@H]1C[C@@H](C(=O)N[C@H](Cc2ccccc2)C(N)=O)N(C(=O)CSC)C1,2.1%
C[C@H](O)c1onc(-c2ccccc2)c1C(=O)NC1CCCC1,-10.8%[70.6 µM]
O=C(c1cc2n(n1)CC(c1ccc(Cl)cc1)OC2)N1CCN(c2ccc(Cl)cc2)CC1 (stereo unspecified),12.6µM*
Cc1ccc(C)c(-n2nc(-c3c(C)nc4scc(CC(=O)NC5CCCCC5)n4c3=O)cc2C)c1,-0.5%
O=C(N1C[C@@H](CO)[C@H](c2ccncc2)C1)C1(c2ccccc2)CC1,-1.2%
Cn1nc(C2CCNCC2)n(Cc2ccccc2)c1=O,-0.6%
Cc1nc([C@@H]2CN(C(=O)c3cscn3)C[C@H]2C(N)=O)n[nH]1,1.3%
O=C(c1cnccn1)N1CCc2c(n(Cc3ccccc3)n(-c3ccccc3)c2=O)C1,-2.7%[70.6 µM]
O=C1NCN(Cc2ccc(Cl)cc2)C12CCN(Cc1ccccn1)CC2,0.0%
Cc1cc2cc(C(=O)N3CCN(c4nc5ccccc5s4)CC3)ccc2o1,?
CN1CC(=O)N(c2ccc(Cl)cc2)Cc2c1ncnc2N1CCC(O)CC1,1.9%
Cc1ncc(C(=O)N2CCCC(c3cccc(C(=O)O)c3)C2)c(=O)[nH]1 (stereo unspecified),0.0%
O=C(NCCN1CCOCC1)c1c(OCC2CC2)cc(=O)n2c1CCOCC2,5.5%
CCOc1cc(=O)n2c(c1C(=O)NCc1ccccc1)CCCCC2,-1.3%
CCN1c2cc(C(=O)NCc3ccccc3F)ccc2C(=O)N2CCCCCC21 (stereo unspecified),-28.9%
Cc1nn(-c2ccccc2)c(C)c1[C@@H]1C=C[C@@H](NC(=O)CCCC(=O)O)C1,5.8%[70.6 µM]
Cc1ccc(-c2nnc3ccc(-c4ccoc4)nn23)nc1,-9.3%[70.6 µM]
CC1(C(=O)NCc2cc(F)ccc2F)CCCCC(=O)N1 (stereo unspecified),0.5%

Reformatted: 4 of the compounds above.
CC(C)CN1C(=O)c2cccn2CC1C(=O)NC1CCS(=O)(=O)C1 (stereo unspecified)
  NPR1 antag: 2.0%
COCCCNC(=O)C(NC(=O)c1ccccc1)C1CCN(C(=O)C2CC2)CC1 (stereo unspecified)
  NPR1 antag: -6.3%
COc1ccc(-c2cc(C(=O)N3CCOC(c4ccc(F)cc4)C3)[nH]n2)cc1 (stereo unspecified)
  NPR1 antag: -26.7%
C=CCNC(=O)N[C@H]1C[C@@H](C(=O)N[C@H](Cc2ccccc2)C(N)=O)N(C(=O)CSC)C1
  NPR1 antag: 2.1%

Later entries.
structure,NPR1 antag
COC1CCC12CCN(C(=O)c1cnccc1C)CC2 (stereo unspecified),1.4%
CCN1c2cc(C(=O)Nc3ccccc3C)ccc2C(=O)N2CCCCCC21 (stereo unspecified),-6.2%
CCN(Cc1nccn1C)C(=O)c1ccc(N2CCC(N(C)C)C2)nc1 (stereo unspecified),2.5%
COc1ccc(CC(=O)N[C@H]2[C@H](O)[C@H](O)C[C@@H]2c2ccccc2)cc1,4.8%[70.6 µM]
O=C(NC1CCN(c2cnn(Cc3ccccc3)c(=O)c2)CC1)C1CCCCC1,-0.4%
Cn1cccc1C(=O)N[C@@H](Cc1ccccc1)C(=O)N1CCCOCCNC(=O)CC1,-0.9%
CCCN1C(=O)CCc2cc(NC(=O)c3cccc(N(C)C)c3)ccc21,-18.7%
Cc1cc(C)n(CC(=O)N2CC(F)(F)C[C@H]2c2nc(C)no2)n1,-1.2%
CC(C)C[C@@H]1N[C@H](C(=O)NCCOc2ccccc2)Cc2c[nH]c3cccc1c23,-28.9%[70.6 µM]
CCc1c(C(=O)N2CCC(CO)(Cc3ccccc3)CC2)[nH]c2ccccc12,-8.4%
CN(C1CCOCC1)C1CCN(S(=O)(=O)c2ccccc2)CC1,-7.7%
Cc1noc(C)c1-c1cc(-c2cccc(N[S+](C)(=O)[O-])c2)cn2cncc12,-14.5%[70.6 µM]
CCNC(=O)[C@@H]1C[C@H](NC(=O)c2ccco2)CN1C(=O)Cc1nonc1C,14.1%
CC(C)N1C[C@H](O)C[C@H]1c1nnc2n1CCN(C(=O)c1ccccc1F)C2,-3.2%
CN1[C@@H](CCC(=O)Nc2ccccc2)CNC(=O)[C@@H]2[C@H]1CCN2Cc1ccc(S(C)(=O)=O)cc1,4.3%
CCN(CC)C(=O)CC[C@@H]1CNC(=O)[C@@H]2C[C@H](NC(=O)c3cccs3)CN12,5.9%[70.6 µM]
Cc1ccc(C(=O)N2CC(c3nnc(-c4ccc(C)cc4)o3)C3(CCOCC3)C2)cc1 (stereo unspecified),-1.0%
CC(CNC(=O)C1CCN(C(=O)c2ncn3c2COC(c2ccccc2)C3)CC1)c1ccccc1 (stereo unspecified),-13.7%
CC1=C[C@@H](CNC(=O)CCC(=O)O)[C@H](C(C)C)C[C@H]1CC(=O)NCc1cccnc1,-1.1%[70.6 µM]
CNC(=O)c1ccc(CNc2nc(CCN)nc3sc(C)c(C)c23)o1,-18.0%
O=C(Nc1cccc(-c2nnc3n2CCCC3)c1)c1ccc(F)c(F)c1,-1.7%
CCn1nccc1C(=O)N1CCCCCCNC(=O)[C@@H]2C[C@@H](c3nc(Cc4ccccc4)no3)C[C@@H]21,-6.0%
CN(Cc1cccn1C)C(=O)c1ccccc1Cl,-6.7%[70.6 µM]
CNC(=O)[C@@H](C1CC1)N1CCC[C@H]1C(=O)NCC1CC1,5.8%[70.6 µM]
O=C1NCCCCCCN(Cc2ccncc2)[C@@H]2CN(C(=O)Nc3ccc4c(c3)OCCO4)CC[C@@H]12,-5.5%
CNC(=O)[C@@H]1CN(C(=O)c2cnc(C)cn2)C[C@H]1COC,3.1%
COc1ccc(-c2nc(N3CCOCC3)cc3c2CN(Cc2ccccc2)C3=O)cn1,-9.1%[70.6 µM]
CCc1ccc(CNC(=O)c2noc(-c3ccc4c(c3)OCO4)n2)cc1,0.0%
O=C(Cn1c2c(c(=O)n1Cc1ccccc1)CCN(Cc1ccccc1)C2)NCc1cccc(F)c1,-1.9%
COCCO[C@H]1C(=O)N(C2CCN(C(=O)c3cc4ccccc4[nH]3)CC2)[C@H]1c1ccncc1,4.7%
CCNC(=O)c1cc(NC(=O)CC)cc2nc(C)ccc12,-0.4%
Cc1ccc(C(=O)N2CCC(Cc3nc(-c4cnccn4)no3)CC2)c(C)c1,-17.9%
Cc1cc2nc3n(c(=O)c2n1CC(=O)Nc1ccc(F)c(Cl)c1)CCCC3,-0.2%
Cc1ccc(C)c(NC(=O)N2C[C@@H](F)C[C@H]2C(=O)N2CCCCC2)c1,-1.2%
CCCS(=O)(=O)NCC(=O)N1CCCCCNC(=O)CC1c1ccccc1 (stereo unspecified),5.8%
Cc1ccccc1-c1onc(C)c1C(=O)NCCOC(C)C,-0.4%
Cc1ccc(CN2CC(Oc3ccc(-c4noc(-c5cccnc5)n4)cc3)C2)o1,12.6µM*
COCCC1(NS(C)(=O)=O)CCN(C(=O)c2ccc(OC)nc2OC)CC1,-0.5%
COCC1(CNCc2ccc(OC)cc2)C[C@@H](O)[C@@H](O)C1 (stereo partly specified),-1.1%[70.6 µM]
COCC(=O)N[C@@H]1CN(CC2CC2)CC[C@@H]1c1nc(C)no1,0.4%
CCNC(=O)N(C1CC1)C1CCOC2(CCN(C(=O)c3ccn(CC)n3)CC2)C1 (stereo unspecified),4.2%
COCCN(Cc1ccccn1)Cc1cc(=O)c2cc(C)cc(C)c2[nH]1,-3.4%
O=C(c1ccncc1)N1CCC(C2CCN(Cc3ccccn3)C2)CC1 (stereo unspecified),-1.9%
COCC(=O)N[C@@H]1CN(C(=O)c2cc3ccccc3[nH]2)CC[C@@H]1CO,2.0%
OC[C@@H]1O[C@H](CNC2CCOCC2)[C@H](N2CCOCC2)[C@@H]1O,1.7%[70.6 µM]
CC(C)CCC1=NC2(CCN(C(=O)CCN3CCCCC3=O)CC2)C(=O)N1,0.8%
Cc1cccc(NC(=O)N2CCc3c(C(=O)NC(C)(C)C)cccc32)c1,-11.9%
O=C(CCn1ccc(=O)[nH]c1=O)N1CC[C@@H](c2ccc3c(c2)OCO3)[C@H](O)C1,-0.5%
CC(=O)Nc1cccc(C(=O)N2CCC3(CC2)N=C(c2ccc(C)cc2)NO3)c1,3.0%
Cc1ccc(CN2C(=O)[C@@H]3C[C@@H](O)CN3C3(CN(Cc4ccc(Cl)cc4)C3)C2=O)o1,1.1%[70.6 µM]
Cc1ccc(C(=O)N2C(C(=O)NCC3CCCO3)COC23CCN(C(=O)CC(C)(C)C)CC3)cc1 (stereo unspecified),5.9%
Cc1cnc(C2CC2)n1C1CCN(S(=O)(=O)c2ccc(C#N)cc2)CC1,-8.6%
O=C(NCc1ccncc1)c1ccc2c(c1)CC(=O)N2Cc1ccc(F)cc1,-10.7%
CCc1ccc(NC(=O)Cn2c(=O)c(-c3noc(CC)n3)c3n(c2=O)CCCCC3)cc1,-4.3%
COc1ccc2nc(CO[C@H]3CN(Cc4ccc(S(C)(=O)=O)cc4)C[C@H]3F)[nH]c2c1,-1.1%[70.6 µM]
COCCN1C(=O)CCC2(C(=O)NCCN(C)C3CCCCC3)CCCC=C12 (stereo unspecified),-19.9%
O=C(Cc1ccccc1)N1CCC2(CC1)CN(c1ccncn1)CC2CO (stereo unspecified),15.7%
O=C(NC1CCCc2c1[nH]c1ccc(F)cc21)c1ccncc1 (stereo unspecified),-18.6%
O=C(C1CCOCC1)N1CCC(c2noc(-c3ccncc3)n2)C1 (stereo unspecified),3.0%
O=C(O)c1cn2ccnc(-c3ccc(F)cc3)c2n1,1.8%

Going on with the list.
structure,NPR1 antag
CCCNC(=O)C1COC2(CCN(C(=O)c3ccccc3C)CC2)N1C(=O)c1cccc(F)c1 (stereo unspecified),3.3%
CC(C)CN(C1CCOCC1)C1CN(C(=O)c2ccncc2)C1,-0.2%
O=C(C1c2ccccc2C(=O)N(c2ccccc2)C12CCCCC2)N1CCCC1 (stereo unspecified),2.7%
CN1CCN(c2nc3c(c(=O)[nH]2)CCN(Cc2ccccc2C#N)CC3)CC1,3.2%
CCOCc1nc(C2CCCNC2)no1 (stereo unspecified),8.7%
O=C(Nc1ccc(F)cc1)c1ccn2cncc2c1,-8.7%[70.6 µM]
CCc1cccc(NC(=O)c2cc(-c3ccc[nH]3)n[nH]2)c1,2.1%
CCCOC(=O)N1CCC(C(=O)Nc2cccc(-c3cccc(F)c3)c2)CC1,?
COc1ccc(C)cc1NC(=O)N1CC2CC(C1)[C@H]1CCCC(=O)N1C2 (stereo partly specified),-3.5%
COc1cccc(C2Cn3nnc(-c4nc(-c5ccccc5Br)no4)c3CO2)c1 (stereo unspecified),-13.8%
Cc1ccc(C(CC(=O)N2CCc3ccccc3C2)c2cn(C)c3ccccc23)cc1 (stereo unspecified),-17.9%
CC(C)(Oc1nn(Cc2cccc(Cl)c2)c2ccccc12)C(=O)NCCCN1CCCC1=O,-21.1%
Cc1ccc(-c2cnc([C@@H]3COCCN3CC3CC3)[nH]2)cc1,3.1%[70.6 µM]
CC(C)N1C[C@H](O)C[C@H]1c1nnc2n1CCN(C(=O)Cc1ccccc1)CC2,4.5%
COc1ccc(-c2cc(C(=O)NCc3c(C)cc(C)[nH]c3=O)c3c(c2)N(C(C)C)CCO3)cc1,-5.4%
CC(C)c1noc(-c2cccn3c(CNC(=O)c4cccc(Cl)c4)nnc23)n1,-2.3%
COC(=O)CNC(=O)N1c2ccccc2CC1c1nc(C(C)C)no1 (stereo unspecified),-0.2%
O=C(NCc1ccco1)C1CCN(C(=O)c2ncn3c2COC(c2ccc(F)cc2)C3)CC1 (stereo unspecified),-3.9%
